# Vaccinia pol inh = blocks vaccinia virus processive DNA synthesis | in vitro processive DNA synthesis, absorbance read-out; stronger effect = lower value; some inactives read as strong as hits | normalized absorbance, % (no concentration beside the values) | 46,000 tested, 0.94% active | AID 493162;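 active means replicate mean up to 90% and picked by the depositor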;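 further: 100% = median of the test wells of a plate; 100 nL library stock went into each well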
# The depositor's hits bear a star. Not all compounds are listed; count on the stated rates, not on these rows.
SMILES,Vaccinia pol inh
CC(C1CC1)N(C(=O)c1ccc(N)cc1)c1ccccc1 (stereo not given),96
CCOC(=O)c1cnn(C(=O)Cc2cccc(OC)c2)c1N,78
Nc1nc(CSc2nnc3c(n2)[nH]c2ccccc23)cs1,100
S=C(NCCC1=CCCCC1)Nc1ccc2nsnc2c1,100
O=C(CCSc1ccc(Br)cc1)Nc1cccnc1,84
COc1cccc(CNC(=O)c2[nH]c3cc(C)ccc3c2Sc2ccc(Cl)cc2)c1OC,95
O=C(O)C1CC(=O)N(C2CCCC2)C1 (stereo not given),102
CCc1nnc(NC(=O)COc2ccc(Cl)cc2)s1,101
NNC(=O)C(O)c1ccccc1 (stereo not given),97
COc1cccc(OC)c1CN(C)C(=O)c1cnc(SC)cc1C(F)(F)F,91
COc1ccc2c(c1)Nc1ccccc1S2,100
COC(=O)c1ccc(NC(=O)C23CC4CC(CC(Cl)(C4)C2)C3)cc1,101
CC(Oc1ccccc1)C(=O)N[C@@H]1C(=O)N2[C@@H]1SC(C)(C)[C@@H]2C(=O)O (stereo not given in full),102
Cn1c(C(=O)NC2CCCC2)cc2oc3ccccc3c21,104
CCOC(=O)c1sc(NC(=O)c2ccccc2OC)nc1-c1ccccc1,100
O=C(CSc1ncnc2ccccc12)NC(c1ccccc1)c1ccccc1,98
CC(C1CC1)N(C(=O)/C=C/c1ccccc1)c1ccccc1 (stereo not given),96
CC(C)C(=O)Nc1c(C(=O)c2ccc(F)cc2)oc2ccccc12,103
CCOC(=O)N1CCN(CC(O)COc2ccc(C3CCCCC3)cc2)CC1 (stereo not given),94
Cc1cc2c(n1-c1ccc(C(=O)N3CCC4(CC3)OCCO4)cc1)CCC(C)C2 (stereo not given),108
CN1CCC(N(C)C(=O)c2ccccc2F)CC1,101
CCc1ccc(CNC(=O)C2CCN(S(=O)(=O)N3CCCCC3)CC2)cc1,112
NS(=O)(=O)c1ccc(NC(=O)COC(=O)c2cccc(N3C(=O)CCC3=O)c2)cc1,100
Cn1ccnc1C(O)c1ccccc1 (stereo not given),102
NC(=O)c1c(Cl)ncc2c1NCC2,99

# Carrying on:
SMILES,Vaccinia pol inh
CC(C)Oc1cccc(NC(=O)Cc2ncc(C(F)(F)F)cc2Cl)c1,103
CO[C@H]1C[C@@H]2CC[C@@H](C)[C@@](O)(O2)C(=O)C(=O)N2CCCC[C@H]2C(=O)O[C@H](C(C)CC2CC[C@@H](O)[C@H](OC)C2)CC(=O)[C@H](C)/C=C(\C)[C@@H](O)[C@@H](OC)C(=O)[C@H](C)C[C@H](C)/C=C/C=C/C=C/1C (stereo not given in full),101
Cn1c(/C=N/n2cnnc2)nc2ccccc21,102
CC(C)(Nc1ccccc1N)c1nc2ccccc2[nH]1,104
CC(=O)NCCn1c(SCc2ccccc2C)nc2ccccc2c1=O,97
CCn1nc(C(=O)O)c(=O)c2cc3c(cc21)OCO3,103
Cc1ccc(C(=O)Nc2nnc(SCC(=O)N3CCCCC3)s2)cc1,102
O=C(NCCN1CCCCC1)Nc1cccc(Cl)c1,99
CC1=CC2=NC(C(F)(F)F)(C(F)(F)F)N=C(C)N2C=C1,100
O=C1/C(=C/c2ccsc2)Cc2ccccc21,76
c1ccc(C(c2ccccc2)N2CCN(CCCc3c[nH]c4ccccc34)CC2)cc1,99
Cc1ccc(NC(=O)COC(=O)c2cccs2)c(C)c1,95
O=C(NCCc1ccccc1)c1ccc(NC2=NC3CS(=O)(=O)CC3S2)cc1 (stereo not given),100
Cc1nc2c(C#N)c(-c3ccc(Cl)cc3)ccn2n1,84
CCC(=O)N1CCNC(=O)C1CC(=O)Nc1ccc(C)c(Cl)c1 (stereo not given),98
CCCCn1c(=O)c(C(=O)Nc2nccs2)c(O)c2ccccc21,99
CC(C)c1ccc(NC(=O)NC2(C(F)(F)F)Oc3ccccc3O2)cc1,100
CCN1CCCC1CNC(=O)CCCc1cn(CC)c2ccccc12 (stereo not given),102
CC1SCC(=O)N(c2cc(Cl)ccc2Cl)C1=O (stereo not given),78
CCSc1nnc(NC(=O)c2c(-c3ccccc3Cl)noc2C)s1,101
C=C(C)CC1(NC(C)c2ccccc2)CCCCC1 (stereo not given),100
Cc1ccc(S(=O)(=O)/N=C(/NC(=S)Nc2ccccc2)c2ccccc2)cc1,100
COc1ccccc1-c1oc2ccccc2c(=O)c1OC(=O)c1cccs1,95
CCc1sc(-c2ccc(Cl)cc2)nc1C(=O)OC,99
NC1=C(c2ccc(F)cc2)C(=O)CS1,105

# Remaining list, next part
SMILES,Vaccinia pol inh
NC(=S)c1cc2ccccc2oc1=O,99
CCOC(=O)C1=C(CC)NC2=C(C(=O)CC(C)(C)C2)C1c1cc(OC)ccc1OC (stereo not given),100
COc1ccc(C(=O)Nc2ccc(C)cn2)cc1,102
Cc1ccc(CCNC(=O)C2CCCN(Cc3nc(-c4ccc(Cl)cc4)oc3C)C2)cc1 (stereo not given),104
Clc1ccc(-c2nc3cnccn3c2NC2CCCC2)cc1,99
C=CCn1c(SCc2ccc(C#N)cc2Cl)nnc1-c1cccc(OC)c1,95
CCOc1ccc(C(Nc2ccccc2)P2(=S)OCCCO2)cc1 (stereo not given),108
CC(C)C1=CCC(C)/C(=C\c2ccc(Cl)cc2)C1=O (stereo not given),100
Cc1nc2nc(NCc3c(F)cccc3Cl)[nH]n2c(=O)c1C,104
COC(=O)c1ccc(N=c2sc(C(=O)OC)cc(=O)n2Cc2ccccc2)cc1,99
COc1cc(OC)cc(C(=O)NC2C3CC4CC(C3)CC2C4)c1 (stereo not given),106
COc1cccc(OC)c1C(=O)Nc1nnc(SC)s1,101
Cc1nc(-c2ccccn2)nc(NC2CCN(c3ncc(C(F)(F)F)cc3Cl)CC2)c1Cl,102
CCCCC/C=C\C/C=C\C/C=C\C/C=C\CCCCCC(=O)NCCO,100
Cc1ccc(S(=O)(=O)c2nc(Nc3nccs3)sc2Cl)cc1,107
COc1cccc(-c2c(OC)cccc2C2CCCCN(C)C2=O)c1 (stereo not given),117
Oc1oc(C=Nc2cccc(C(F)(F)F)c2)c2ccccc12,100
Cn1c(-c2nonc2NC(=O)c2cccs2)nc2ccccc21,100
COc1cccc(-c2c(C(N)=O)nnc3cc(-c4ccccc4)nn23)c1,114
O=C(NCCc1ccccc1)C1c2ccccc2-c2ccccc21,100
COCCn1cc(C(=O)NC2CCCCCC2)c2c3ccccc3n(C)c2c1=O,102
C=C(C)n1c(=O)n(Cc2ccc(C)cc2)c2ccccc21,101
CCc1nc(N2CCCCC2)c2sc(=S)n(-c3ccccc3)c2n1,100
O=C(/C=C1\Sc2ccccc2NC1=O)NCc1ccco1,101
CCc1cc(-c2ccccc2)nc2ccccc12,100

# Entries above with a COOH group, in the order listed:
SMILES,Vaccinia pol inh
O=C(O)C1CC(=O)N(C2CCCC2)C1 (stereo not given),102
CC(Oc1ccccc1)C(=O)N[C@@H]1C(=O)N2[C@@H]1SC(C)(C)[C@@H]2C(=O)O (stereo not given in full),102
CCn1nc(C(=O)O)c(=O)c2cc3c(cc21)OCO3,103

# (more compounds)
SMILES,Vaccinia pol inh
COc1ccc(NC(=O)c2nc(S(C)(=O)=O)ncc2Cl)cc1Cl,100
CC1CC2OC(C)(C)OC2C(OC(=O)c2ccccc2)O1 (stereo not given),101
N/C(=N\O)c1ccc(N2CCN(c3ncccc3C(F)(F)F)CC2)nc1,100
COc1cc2c(cc1OC)C(Nc1ccc(Br)cc1)=NC(C)(C)C2,102
NC(=O)C(c1ccccc1)c1ncc(C(F)(F)F)cc1Cl (stereo not given),104
Cc1ccc(CSCC(=O)N2CCN(c3ccccc3)CC2)cc1,96
Cc1ccc(CSCCC(=O)O)cc1,93
COCc1cc(OC(=O)N(C)C)nc2c1c(C)nn2C,97
Cc1ccc2[nH]c(=S)n(C3CC4C=CC3C4)c(=O)c2c1 (stereo not given),99
O=C(Cc1nc(-c2cccs2)no1)Nc1cccc(C(F)(F)F)c1,102
COc1ccc(C2C(C(=O)NC3CCCC(C)C3C)c3ccccc3C(=O)N2C)cc1 (stereo not given),96
Oc1ccccc1CNCc1ccccn1,98
O=S(=O)(NCc1ccco1)c1ccccc1,90
O=C1c2ccc(F)cc2C(=O)N1C1CCCCCCC1,97
CN(C)c1nc(N(C)C)nc(N(C)C)n1,100
COc1ccc(NC(=O)c2oc(=O)c3ccccc3c2-c2ccccc2)cc1,100
Cc1ccc(-c2cc3ccccn3c2)cc1,101
CCc1ccc(NC(=O)c2cc3c(=O)oc4ccccc4c3s2)cc1,100
CC(=O)OC1C2CCC1C(N1CCCCC1)CC2 (stereo not given),99
O=C(/C=C/c1cccs1)Nc1cccc(C(F)(F)F)c1,97
CCc1ccc(CNC(=O)COc2cc(=O)n(C)c3ccccc23)cc1,88
Cn1c(C(=O)NCc2ccccc2)cc2oc3ccccc3c21,102
CCOC(=O)C1CCN(C(c2cccc(Cl)c2)c2c(NC(C)=O)sc3c2CCCC3)CC1 (stereo not given),94
O=c1[nH]c2ccc(Cl)cc2c(-c2ccccc2)c1N1CCN(CCO)CC1,100
COC(=O)Nc1c(C)n(C)n(-c2ccccc2)c1=O,100

# No new results follow: an excerpt of the list.
SMILES,Vaccinia pol inh
Oc1ccccc1CNCc1ccccn1,98
O=S(=O)(NCc1ccco1)c1ccccc1,90
O=C1c2ccc(F)cc2C(=O)N1C1CCCCCCC1,97
CN(C)c1nc(N(C)C)nc(N(C)C)n1,100
COc1ccc(NC(=O)c2oc(=O)c3ccccc3c2-c2ccccc2)cc1,100
Cc1ccc(-c2cc3ccccn3c2)cc1,101
CCc1ccc(NC(=O)c2cc3c(=O)oc4ccccc4c3s2)cc1,100
CC(=O)OC1C2CCC1C(N1CCCCC1)CC2 (stereo not given),99
O=C(/C=C/c1cccs1)Nc1cccc(C(F)(F)F)c1,97
CCc1ccc(CNC(=O)COc2cc(=O)n(C)c3ccccc23)cc1,88
Cn1c(C(=O)NCc2ccccc2)cc2oc3ccccc3c21,102
CCOC(=O)C1CCN(C(c2cccc(Cl)c2)c2c(NC(C)=O)sc3c2CCCC3)CC1 (stereo not given),94
O=c1[nH]c2ccc(Cl)cc2c(-c2ccccc2)c1N1CCN(CCO)CC1,100
COC(=O)Nc1c(C)n(C)n(-c2ccccc2)c1=O,100

# (more compounds)
SMILES,Vaccinia pol inh
Cc1ccc(NC(=O)c2cc(S(=O)(=O)N3CCCCC3)ccc2F)cc1,100
COc1c(S(=O)(=O)n2cnc3ccccc32)ccc(Cl)c1Cl,98
O=C(Nc1ccccc1)OCc1cc(-c2ccccc2)c(C(F)(F)F)s1,97
O=C(Cn1c(=O)n(Cc2ccc(C(=O)NC3CCCC3)cc2)c(=O)c2ccccc21)c1ccccc1,103
OCC1(C2=NOC(O)(C(F)(F)F)C2)CCCCC1 (stereo not given),100
CCCN(CCC)CN1CC(Cn2c3ccccc3c3ccccc32)OC1=O (stereo not given),100
Cc1ccccc1CNCc1cccnc1,99
CCOC(=O)c1c(NC(=O)CSc2ncccn2)sc2c1CCC2,100
CCCCC(=O)NCc1ccc2c(c1)cc(C)n2C,101
NC(=O)C1CCN(C(=O)CSc2ccc3ccccc3c2)CC1,81
Cc1ccc(Oc2cc(C#N)c3ccccc3n2)c(-n2nc3ccccc3n2)c1,100
Cc1nnc(C)n1/N=C/c1ccccc1C(F)(F)F,91
O=C(CCn1c(=S)[nH]c2ccsc2c1=O)N1CCN(c2ccccc2)CC1,98
Cc1ccc2sc(-c3ccc(NC(=O)C(C)C)cc3)nc2c1,99
O=C(O)CCC/C=C\C[C@@H]1[C@@H](/C=C/[C@@H](O)COc2cccc(C(F)(F)F)c2)[C@H](O)C[C@@H]1O,97
CCc1ccccc1NC(=O)Cn1cnc2ccccc2c1=O,109
COc1ccc(NC(=S)NCC(c2ccccc2)c2c[nH]c3ccccc23)cc1 (stereo not given),99
NC(=O)C1CCN(C(=O)c2cnn(-c3ccccc3)c2-n2cccc2)CC1,95
O=C(CCn1c(=O)sc2ccccc21)Nc1ccon1,100
O=C1c2ccccc2-c2nnc(-c3ccc(O)cc3)cc21,89
COc1ccc2nc(NC(=O)c3ccco3)sc2c1,87
CCC(=O)Nc1ccc(-c2cn3cccc(C)c3n2)cc1,75
CCc1c(C)sc(NC(=O)c2cc(-c3ccccc3)on2)c1C#N,89
O=S1(=O)C=CC(Nc2ccccc2)C1 (stereo not given),102
Cc1cc(N2CCCCC2)nc(-c2ccc(Br)cc2)n1,100

# (list continues)
SMILES,Vaccinia pol inh
CCCn1cc(SCC(=O)N2CCc3ccccc32)c2ccccc21,101
COc1ccc(C=Nc2ccccc2Sc2c(C)n[nH]c2C)cc1,105
S=C(NC1CCCCC1)N1CCCCC1,100
CC[N+]12CCC(CC1)C(C(=O)c1cccs1)C2 (stereo not given),98
CCN(CC)S(=O)(=O)c1ccc(C(=O)Nc2sccc2C#N)cc1,94
O=C(O)CNC(=O)CC12CC3CC(CC(C3)C1)C2,101
Cc1ccc(S(=O)(=O)NCC(=O)N2CCCCC2)cc1,96
O=C(NCCn1ccc2ccccc21)c1ccc(F)cc1,92
COc1ccc(C(=O)C(C)OC(=O)c2ccc3ccccc3n2)cc1 (stereo not given),106
CSCCC(N)c1nc2ccccc2n1Cc1ccccc1 (stereo not given),95
c1ccc(CN(CCN(Cc2ccccn2)Cc2ccccn2)Cc2ccccn2)nc1,99
CCOc1ccc(NC(=O)N(Cc2cn(C)c3ccccc23)C2CCCCC2)cc1,104
O=C(NCc1ccc(Cl)cc1)c1cc(-c2ccc(F)cc2)nc2ccccc12,100
O=C(COC(=O)c1ccccc1C(=O)c1ccc(Cl)cc1)Nc1ccccc1,101
CC(C)(C)C(=O)Nc1ccn([C@H]2C[C@H](O)[C@@H](COC(=O)C(C)(C)C)O2)c(=O)n1,108
CC12CN3CC(C)(CN(C1)C3C1CCCCC1)C2=O (stereo not given),100
CC1CCCCN1C(=O)C1c2ccccc2Oc2ccccc21 (stereo not given),100
Fc1ccc(CN(C(=S)Nc2ccccc2F)C2CCCCC2)cc1,97
Cc1ccc(SCc2cn3ccccc3n2)cc1,103
NNC(=O)Cc1nc2ccccc2[nH]1,100
CC(CCc1ccccc1)NC(=O)c1ccc(=O)[nH]c1 (stereo not given),97
COC1(OC)N=C(N)C2(C#N)C3C=CC(CC3)C12C#N (stereo not given),100

# Compound activity: PubChem, ICCB-Longwood Screening Facility, Harvard Medical School
